KCNQ2 block: KCNQ2 potassium channel inhibitors, primary screen, cell-based, CHO-K1, FluxOR thallium flux, B-score (AID 2156) | 310,000 tested, 1.1% active | B-score at 10 µM | 20 min; stronger effect = lower value; only compounds with negative scores are shown here; some inactives read as strong as hits | O88943;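 active means fluorescence ratio B-score at most minus 3 library SDs, with starting brightness B-score within 2 library SDs, cut at about -5.5 in these data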
Target sequence (O88943 whole entry, looked up): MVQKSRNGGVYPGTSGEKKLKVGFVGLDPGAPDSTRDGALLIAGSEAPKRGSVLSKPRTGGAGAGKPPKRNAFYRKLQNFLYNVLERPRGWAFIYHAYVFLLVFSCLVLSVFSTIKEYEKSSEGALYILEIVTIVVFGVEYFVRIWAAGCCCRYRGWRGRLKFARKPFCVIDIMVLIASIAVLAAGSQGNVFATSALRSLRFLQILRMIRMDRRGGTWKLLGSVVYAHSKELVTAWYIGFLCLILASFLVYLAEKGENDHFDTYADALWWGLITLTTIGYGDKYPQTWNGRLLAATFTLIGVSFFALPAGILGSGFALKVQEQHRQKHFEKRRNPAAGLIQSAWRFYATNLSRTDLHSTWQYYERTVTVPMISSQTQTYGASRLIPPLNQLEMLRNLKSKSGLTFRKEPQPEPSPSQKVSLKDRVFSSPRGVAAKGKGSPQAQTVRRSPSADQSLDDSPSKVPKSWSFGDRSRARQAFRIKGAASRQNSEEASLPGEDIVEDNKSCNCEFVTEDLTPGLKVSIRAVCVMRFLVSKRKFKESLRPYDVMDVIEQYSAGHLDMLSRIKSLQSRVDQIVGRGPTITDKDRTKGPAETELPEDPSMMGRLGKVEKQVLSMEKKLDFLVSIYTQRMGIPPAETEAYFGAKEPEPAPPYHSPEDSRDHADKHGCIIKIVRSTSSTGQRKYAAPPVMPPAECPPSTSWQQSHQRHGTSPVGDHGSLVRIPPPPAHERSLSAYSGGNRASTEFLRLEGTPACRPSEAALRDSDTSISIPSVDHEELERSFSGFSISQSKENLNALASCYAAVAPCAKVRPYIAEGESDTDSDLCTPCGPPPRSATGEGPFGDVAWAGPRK
KCNQ2 block baseline: further read-out of KCNQ2 block, marked with its call; B-score; measured here: initial fluorescence intensity artifact check;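 brightness before thallium and not channel activity; 0 = typical well and far values either way flag optical interference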
* marks the source's active call; other numbers are inactive results; i = inactive.

The line under a structure holds: KCNQ2 block	KCNQ2 block baseline
> CC(C)C[C@H](NC(=O)c1[nH]cnc1C(=O)N[C@@H](C)C(=O)OCc1ccccc1)C(=O)OC(C)(C)C
→ i	0.1
> O=C(CCN1C(=O)COc2ccccc21)NCCN1CCc2ccccc2C1
→ i	-0.1
> O=C(c1ccccc1NS(=O)(=O)c1cccs1)N1CCCC1
→ i	0.41
> COc1ccc(NC(=S)Nc2ccccc2)cc1
→ i	1.9
> CCCNC(=O)C1CCN(c2nc(C)cc(C)n2)CC1
→ i	1.3
> COc1ccc(NC(=O)Nc2ccc(F)c(Cl)c2)cc1
→ i	-0.83
> Cc1c(S(=O)(=O)Nc2ccc3c(c2)OCCO3)cnn1C
→ i	1.5
> Cc1cc(C)c(-c2cc(NC(=O)CSc3n[nH]c(N)n3)n(-c3ccccc3)n2)cc1C
→ -6.9*	-0.61*
> C#CC(C)(C)NC(=S)NC1CC2C=CC1C2 (configuration not stated)
→ i	0.21
> CCOC(=O)N1CCC2(CC1)C(C#N)=C(N)Oc1n[nH]c(CSc3ccc(C)cc3)c12
→ i	0.43
> COc1ccccc1C(=O)NCCCN1CCCC1=O
→ i	0.39
> Cc1ccccc1NC(=S)c1ccc2ccccc2n1
→ i	1
> O=C(c1oc(=O)c2ccccc2c1-c1ccccc1)N1CCN(C2CCCCC2)CC1
→ i	0.67
> O=S(=O)(NC1CCCCC1Oc1ccccc1)c1ccc(Cl)cc1 (configuration not stated)
→ i	2.5
> CC1CC(C)(C)NC(=S)N1CCC(=O)NCCc1ccc(Cl)cc1 (configuration not stated)
→ i	0.7
> O=C(CCCn1c(=O)c2sccc2n(CC(=O)OCc2ccccc2)c1=O)NCc1ccco1
→ i	-0.96
> Oc1ccc2ccccc2c1CNc1ccc(Br)cn1
→ -6.2*	-1*
> CCOC(=O)CC1=C(C(=O)OCC)C(c2ccc(C)o2)C(C#N)=C(N)O1 (configuration not stated)
→ i	1.6
> Cc1cccc(Oc2coc3cc(OC(=O)c4cccs4)ccc3c2=O)c1
→ i	0.2
> O=C(CN(C(=O)c1csnn1)c1ccc(F)cc1)NCc1ccc2c(c1)OCO2
→ i	0.08
> Cc1ccc(C(C)C)c(OCC#CCN2CCOCC2)c1
→ i	-0.67
> O=S(=O)(c1cccs1)N1CCN(CC(O)COC2CCCc3ccccc32)CC1 (configuration not stated)
→ i	0.16
> O=C(CSc1nc2cc(Cl)ccc2o1)Nc1ccc(N2CCOCC2)cc1
→ i	-1.9
> COC(=O)[C@@H]1[C@H](CCc2ccccc2)NC(=O)N(Cc2ccccc2)[C@@H]1C
→ i	0.49
> O=[N+]([O-])c1ccc(Cl)cc1NCC1CCCO1 (configuration not stated)
→ i	-1.8
> Cc1ccc2c(C)c(C(=O)N3CCN(C4CCS(=O)(=O)C4)CC3)oc2c1C (configuration not stated)
→ i	-0.58
> Cn1c(C(=O)Nc2ccc3c(c2)OCCO3)cc2sccc21
→ i	-0.14
> CCCNC(=S)N1CCN(c2nc(-c3ccc(C)cc3)cs2)CC1
→ i	0.18
> CC(C(=O)N1c2ccccc2CCc2ccccc21)n1nnc(-c2ccc(N(C)C)cc2)n1 (configuration not stated)
→ i	0.69
> CC(=O)c1ccc(NC(=O)C2=CC(c3ccco3)=NS(=O)(=O)N2C)cc1
→ i	-1.7

The final 4 records of the part before open the next one.
The line under a structure holds: KCNQ2 block	KCNQ2 block baseline
> Cn1c(C(=O)Nc2ccc3c(c2)OCCO3)cc2sccc21
→ i	-0.14
> CCCNC(=S)N1CCN(c2nc(-c3ccc(C)cc3)cs2)CC1
→ i	0.18
> CC(C(=O)N1c2ccccc2CCc2ccccc21)n1nnc(-c2ccc(N(C)C)cc2)n1 (configuration not stated)
→ i	0.69
> CC(=O)c1ccc(NC(=O)C2=CC(c3ccco3)=NS(=O)(=O)N2C)cc1
→ i	-1.7
> COc1ccc(OC)c(C(=O)CSc2nnc(Cc3cccs3)n2C)c1
→ i	-0.03
> Cc1ccc(-n2c(SCC(=O)NCc3ccco3)nc3c([nH]c4ccccc43)c2=O)cc1
→ i	-2
> O=C(c1ccoc1)N1CCCC(CO)(CCCc2ccccc2)C1 (configuration not stated)
→ i	-2
> COc1cccc(/C=N/NC(=O)C[n+]2ccccc2)c1O
→ i	1.2
> COc1cccc(C(C(=O)Nc2ccc(F)cc2)N(C(=O)Cn2nnc3ccccc32)C2CC2)c1 (configuration not stated)
→ i	1.1
> CCNC(=O)c1cc2ccccc2o1
→ i	1
> O=C(CCC(=O)c1ccc(Oc2ccccc2)cc1)Nc1ccc(Cl)cc1Cl
→ i	-0.86
> COC(=O)C1C(=O)C2=C(CC1C)NC(=O)CC2c1ccc(F)cc1 (configuration not stated)
→ i	-0.51
> C[C@@H]1C=CC(=O)O[C@@H]1c1ccc(C(F)(F)F)cc1
→ i	-1.5
> COc1ccc(C(=O)CN2CC(C)SC2=Nc2ccc(Cl)cc2)cc1 (configuration not stated)
→ i	-0.56
> CS(=O)(=O)c1ccccc1COC(=O)Nc1ccc(Cl)cc1
→ i	-1.5
> O=C1CCC([N+](=O)[O-])C(c2ccccc2Br)N1 (configuration not stated)
→ i	0.41
> Cc1ccc(NC(=O)CCNC(=O)c2ccc(Br)cc2)cc1S(=O)(=O)N1CCOCC1
→ i	-0.12
> COC(=O)c1sc2ccccc2c1NC(=O)c1coc2ccccc2c1=O
→ i	-0.01
> O=S(=O)(c1ccc(Cl)cc1)c1nc(-c2ccco2)oc1N1CCCCC1
→ i	-1.2
> Cn1c(C(=O)NN)cc2cc(OCc3ccccc3)ccc21
→ i	-1.1
> COc1cccc(NC(=O)NNC(=O)CCc2ccc(O)c(O)c2)c1
→ i	0.02
> CCc1ccccc1NC(=S)N(CCc1ccncc1)C(C)C
→ i	2.3
> COc1ccc(-n2nc(C(=O)NCC(=O)N3CCN(Cc4ccccc4)CC3)c3ccccc3c2=O)cc1OC
→ i	-0.94
> CCOc1ccccc1OCC(=O)Nc1ccc(OC)c(S(=O)(=O)N2CCCCC2)c1
→ i	0.3
> CCn1c(=O)c(C(=O)Nc2ncccc2O)c(O)c2ccccc21
→ i	0.01
> COC(=O)c1c(NC(=O)c2cccs2)sc2c1CCC(C)C2 (configuration not stated)
→ i	0.37
> CCOc1ccccc1OCCCCCc1c(C)n[nH]c1C
→ i	0.61
> COc1ccc(S(=O)(=O)Nc2nncs2)cc1
→ i	1.3
> CCOC(=O)N1CCC(NC(=O)c2ccc(NC(=O)C3CCCO3)cc2)CC1 (configuration not stated)
→ i	-0.5
> O=C(Nc1nnc(C2CC2)s1)C1Cc2ccccc2CN1C(=O)c1ccco1 (configuration not stated)
→ i	-2.1
> CC(C)(C#N)Cc1cc(CC(C)(C)C#N)cc(C(C)(C)C)c1
→ i	-0.59
> O=C(c1cccc(S(=O)(=O)Nc2ccccc2F)c1)N1CCN(c2ccccc2F)CC1
→ i	-3.5
> O=C(C1=C[C@@H]2[C@H]3C(=O)N(c4cccc(Cl)c4)C(=O)[C@H]3[C@@H](C(=O)c3ccc(Cl)cc3)N2C=C1)c1ccccc1
→ i	-0.49
> Cn1cccc1CC(=O)NNC(=O)Nc1cccc(Cl)c1
→ i	1.4
> O=C(O)c1ccccc1OCC1CCCO1 (configuration not stated)
→ i	-0.92
> CC(=O)N1c2ccc(S(=O)(=O)N3CCCCC3)cc2CC1C(=O)Nc1ccccc1C(F)(F)F (configuration not stated)
→ i	-0.17
> CCCOc1ccccc1C1C(C(=O)OC)=CN(C(C)C)C=C1C(=O)OC
→ i	-0.83
> COc1ccccc1CCC(=O)Nc1ccc(C)cc1Cl
→ i	1.4
> S=C(NCCc1ccccc1)NCc1ccccc1Cl
→ i	1.3
> CCOC(=O)C1(CCOc2ccccc2)CCN(S(=O)(=O)N(C)C)CC1
→ i	0.17
> Cc1cc(C)n(-c2nc3c(c(=O)[nH]c(=O)n3C)n2CC(O)COc2ccccc2)n1 (configuration not stated)
→ i	3.6
> CC(=O)N1CCN(c2ccc(NC(=O)c3ccc(Cl)c([N+](=O)[O-])c3)cc2)CC1
→ i	-0.07
> O=C(Oc1ccccc1)c1cc2ccccc2oc1=O
→ i	2.2
> O=C(NCc1ccc2c(c1)OCO2)c1ccc(S(=O)(=O)N2CCCCC2)cc1
→ i	-0.92
> Cc1ccc(C)c(-n2c(SCC(=O)O)nc3sc4c(c3c2=O)CCCC4)c1
→ i	-0.12
> O=C(CS(=O)c1ccccc1[N+](=O)[O-])Oc1ccc(Br)cc1 (configuration not stated)
→ i	-0.06
> CCc1ccc2[nH]c(=O)c(C(c3nnnn3CC3CCCO3)N3CCN4CCCC4C3)cc2c1 (configuration not stated)
→ i	-0.12
> Cc1[nH]c2ccccc2c1SCC(=O)N1CCCc2ccccc21
→ i	-2.2
> N#Cc1cnc(Nc2nc3ccccc3o2)nc1-c1ccccc1
→ i	-1.8
> CCC(C)Nc1nc(N)c([N+](=O)[O-])c(N2CCCCCC2)n1 (configuration not stated)
→ i	-0.21
> CCc1ccc(/C=N/N2CCN(c3ccccn3)CC2)cc1
→ i	-1.1
> COc1ccc(-c2n[nH]c(C)c2-c2cnn(-c3ccccc3)c2)c(O)c1C
→ i	1.3
> CCOC(=O)N1CCN(C(=O)C2CCCN(S(=O)(=O)c3cccnc3)C2)CC1 (configuration not stated)
→ i	0.14
> CCOC(=O)C1=C(C)Nc2nnnn2C1c1cccc(OC)c1OC (configuration not stated)
→ i	-1
> COc1ccc(/C=N/NC(=O)c2cccc([N+](=O)[O-])c2)cc1OC(=O)c1ccccc1
→ i	2.6
> O=C(NC1CCOc2ccccc21)C1CCCC1 (configuration not stated)
→ i	0.35
> NC(=O)COc1ccc(Cc2ncc(C(F)(F)F)cc2Cl)cc1
→ i	0.85
> O=C(CSC1=NS(=O)(=O)c2cc(Cl)ccc2N1)NCc1ccccc1
→ i	-1.6
> O=C(N/N=C/c1ccccn1)c1ccc([N+](=O)[O-])cc1
→ i	-0.53
> Cc1cccc(CN2CCN(c3ccccn3)CC2)c1
→ i	-0.8
> COCCOc1ccc(C(F)(F)F)cc1NC(=O)c1ccc(C)cc1
→ i	-0.89
> CC(Oc1ccc(Cl)cc1Cl)C(=O)NCCC1=CCCCC1 (configuration not stated)
→ i	-1.1
> O=c1c(Cl)c(Cl)cnn1Cc1ccc(F)cc1
→ i	-1.2
> CC1CCN(S(=O)(=O)c2c[nH]c(=O)[nH]c2=O)CC1
→ i	1.5

Additional entries follow.
The line under a structure holds: KCNQ2 block	KCNQ2 block baseline
> O=C(O)c1ccc(-n2ccnc2)c([N+](=O)[O-])c1
→ i	-1.3
> Cc1ccc(C2(C)NC(=O)N(CC(=O)Nc3ccc(S(=O)(=O)Nc4nccs4)cc3)C2=O)cc1 (configuration not stated)
→ i	-0.24
> Cc1ccccc1CS(=O)(=O)CCC(=O)O
→ i	1.9
> CCN(CC)C(=O)C[n+]1ccc(C(N)=O)cc1
→ i	-0.14
> CCCCN(CC)Cc1c(C)[nH]c2ccccc2c1=O
→ i	0.32
> O=C(c1ccc(N2CCCCS2(=O)=O)cc1)N1CCN(c2ccc(N3CCOCC3)nn2)CC1
→ i	0.7
> S=C(Nc1ccc(Br)cc1Cl)NC1CCN(Cc2ccccc2)CC1
→ i	3.2
> CC(C)Sc1ncnc2c1cnn2-c1ccccc1
→ i	0.62
> CCOC(=O)C1=C(CCc2ccccc2)NC(=O)NC1c1ccc2ccccc2c1 (configuration not stated)
→ i	-0.22
> Cc1ccc(NC(=O)COC(=O)c2ccco2)cc1
→ i	0.38
> Oc1ccc(-c2csc(Nc3ccccn3)n2)cc1O
→ i	-1.6
> CC1Cc2cc(-c3csc(N)n3)ccc2O1 (configuration not stated)
→ i	0.16
> COc1ccc(Cn2c(=O)[nH]c3cc(C(=O)NCc4ccc5c(c4)OCO5)ccc3c2=O)cc1
→ i	1.2
> Cc1ccc(OCC(COCc2ccccc2)NC(C)C)cc1 (configuration not stated)
→ i	1.1
> COC(=O)C1(C)CC1(c1ccccc1)c1ccccc1 (configuration not stated)
→ i	-1.1
> Cc1ccc(S(=O)(=O)N2CCCCC2CCNC(=O)C(=O)NCc2ccncc2)cc1 (configuration not stated)
→ i	1.9
> Cc1ccsc1/C=C1\CCc2ccccc2C1=O
→ i	0.36
> CN(C)c1ccc(S(=O)(=O)N(C)C)cc1[N+](=O)[O-]
→ i	0.71
> COc1ccc(CNC(=O)CN2C(=O)c3ccc([N+](=O)[O-])cc3C2=O)cc1
→ i	2.2
> Cc1ccc(/C=C2\CCC3=C2OC(N)=C(C#N)C3c2ccc(C)cc2)cc1 (configuration not stated)
→ i	8
> CCOc1cc(CNC2CCCC2)c(Cl)cc1OCC(=O)Nc1ccccc1
→ i	-1.2
> C/C(=C\C(=O)c1ccccc1)NNc1nc2ccccc2s1
→ -5.7*	-0.07*
> O=C1c2ccc([N+](=O)[O-])cc2C(=O)N1c1ccc(Cl)cn1
→ i	-0.01
> CC(C)(C)OC(=O)N1CCN(C(=O)c2[nH]cnc2C(=O)NCC(=O)OCc2ccccc2)CC1
→ i	-0.74
> Cc1ccc(N2C(=O)N(Cc3ccccc3C)c3ccccc3S2(=O)=O)cc1
→ i	-0.32
> Cc1ncc(CN2CCC(n3nccc3NC(=O)c3ccccc3)CC2)s1
→ i	0.01

Compound profiles (already shown).
`Cc1ccc(OCC(COCc2ccccc2)NC(C)C)cc1` (configuration not stated) is entered as KCNQ2 block: i; KCNQ2 block baseline: 1.1
`CCOc1ccccc1OCCCCCc1c(C)n[nH]c1C` is entered as KCNQ2 block: i; KCNQ2 block baseline: 0.61
`C[C@@H]1C=CC(=O)O[C@@H]1c1ccc(C(F)(F)F)cc1` is entered as KCNQ2 block: i; KCNQ2 block baseline: -1.5

Screening data (PubChem BioAssay)

Only part of the results is shown. The share of hits here may be higher or lower than overall.
